# AF4-AF9 inh – inhibitors of AF4 peptide binding to AF9, primary screen, biochemical, AlphaScreen, biotin-AF4 peptide, FLAG-AF9, single point; Protein AF-9 (Homo sapiens), P42568; inhibition, % at 10 µM; 0.47% of 350,000 active; AID 651704, 2012;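 active means every replicate reaching a set inhibition limit, whatever the replicate mean, cut at about 25% in these data; inconclusive means mean inhibition reaches that limit but some replicates miss it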;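 further: 0% = plate neutral control median and 100% = total signal loss; the record names both 10 and 1 µM as test concentration; the first replicate is given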
# Target sequence (P42568 whole entry, looked up): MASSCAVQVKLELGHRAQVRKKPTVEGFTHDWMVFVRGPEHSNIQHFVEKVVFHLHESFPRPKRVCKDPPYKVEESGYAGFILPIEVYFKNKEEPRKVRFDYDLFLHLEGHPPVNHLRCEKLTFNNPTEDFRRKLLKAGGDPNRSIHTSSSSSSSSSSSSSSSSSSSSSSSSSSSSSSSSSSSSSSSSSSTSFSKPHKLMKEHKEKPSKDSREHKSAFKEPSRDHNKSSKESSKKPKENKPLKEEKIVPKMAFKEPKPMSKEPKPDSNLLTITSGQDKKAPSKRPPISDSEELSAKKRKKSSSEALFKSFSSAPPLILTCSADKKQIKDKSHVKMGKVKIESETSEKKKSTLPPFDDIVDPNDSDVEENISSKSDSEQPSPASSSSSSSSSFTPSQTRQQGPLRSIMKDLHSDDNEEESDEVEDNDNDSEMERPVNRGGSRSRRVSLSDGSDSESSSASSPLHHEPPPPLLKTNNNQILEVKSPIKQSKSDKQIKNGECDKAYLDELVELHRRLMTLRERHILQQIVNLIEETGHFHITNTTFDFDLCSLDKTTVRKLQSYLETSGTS
# A1 inh – caspase 3/7 activation in MEF A1-2A-BIM cells, primary screen, A1 inhibitor project, cell-based, luminescence, HTS. Caspase-Glo 3/7 luminescence, 3 h; percent of clofoctol response, vehicle zero. caspase activation, % (concentration not given with the values). 0.066% of 330,000 active. AID 2462, 2010;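 active means over half of replicate activation scores above 10%, or exactly half above 10 with the replicate mean above 10; inconclusive means replicate mean below 10 yet half the replicates above 10; inactive means over half of replicates below 10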;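 further: wells of about 30 µL received 50 nL stock; many hits fall short of the cut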
# Ecoli growth – E. coli growth inhibition, primary screen, OD600; Escherichia coli growth, 23 h; active compounds read low; OD600 absorbance (no concentration beside the values); 0.21% of 330,000 active;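 active means OD600 absorbance below the run mean of sample wells minus 3.6 SD, in any replicate, cut at about 0.56 in these data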;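 further: stock transfer was 300 nL into about 60 µL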
# Beta cell apopt – inhibitors of cytokine-induced beta cell apoptosis, primary screen, luminescence. AID 435005, 2010. protection from apoptosis, % (no concentration beside the values). 0.8% of 300,000 active. INS-1E cytokine-induced death, ATP luminescence, 48 h; percent of positive-control rescue, neutral wells zero;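 active means all replicates at 75% or more, or half of them and the mean; inconclusive means half reach 75% but not the mean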;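 further: 0% = cytokine-treated negative control wells and 100% = positive control rescue; higher means more ATP so stronger rescue from cytokine killing; wells of about 40 µL received 100 nL stock; the first replicate is given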
# UCH37 inh – inhibitors of human UCH37 deubiquitinase, primary screen, biochemical, Ub-AMC cleavage, fluorescence | Ubiquitin carboxyl-terminal hydrolase isozyme L5 (Homo sapiens), Q9Y5K5 | purified proteasome/UCH37 | inhibition, % (test concentration not listed) | 0.33% of 330,000 active;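 active means mean of two replicates above 20%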;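 further: 0% = compound-free wells with enzyme and 100% = wells lacking proteasome; stock transfer was 100 nL into about 20 µL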
# Target sequence (Q9Y5K5 whole entry, looked up): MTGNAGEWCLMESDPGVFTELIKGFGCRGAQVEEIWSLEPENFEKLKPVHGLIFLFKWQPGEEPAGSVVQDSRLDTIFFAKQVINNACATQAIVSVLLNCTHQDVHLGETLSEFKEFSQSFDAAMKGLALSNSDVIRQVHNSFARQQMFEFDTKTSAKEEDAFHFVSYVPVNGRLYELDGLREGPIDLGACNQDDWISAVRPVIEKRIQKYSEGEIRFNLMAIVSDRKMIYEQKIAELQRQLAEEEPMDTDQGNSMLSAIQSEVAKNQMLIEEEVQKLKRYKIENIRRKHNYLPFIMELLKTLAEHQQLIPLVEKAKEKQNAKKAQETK
#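 assay system = human UCH37 enzyme supplied as purified proteasome complex | amount = proteasome at 0.15 nM in the dispensed enzyme solution | schedule = 30 min compound-proteasome preincubation then 25 min substrate reaction, room temperature | measured by = fluorescence, ex 355 nm, em 460 nm | benchmarks = no-proteasome wells (full inhibition) and compound-free wells (no inhibition)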
# T cruzi inh – inhibitors of intracellular T. cruzi growth, primary screen, luminescence, NIH3T3 host cells; T. cruzi beta-gal in NIH3T3, 90 h; inhibition, % (no concentration beside the values); 1.4% of 300,000 active;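 active means mean inhibition across valid replicates above about 55%, limit read from the data; inconclusive means mean below that limit but half or more replicates reach it; inactive means mean below it, under half of replicates reach it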;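 further: signal also drops with host cell toxicity which is not excluded here; 0% = plate median of DMSO wells and 100% = zero luminescence signal; higher percent means less beta-gal luminescence so fewer parasites; stock transfer was 50 nL into about 50 µL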
# Ecoli rRNA inh – reduced GFP signal of wild-type E. coli, primary screen, bacterial rRNA inhibitor project, GFP/RFP fluorescence, OD600, single point; E. coli WT GFP vs humanized-ribosome RFP mutants, 24 h; active compounds read low; DMSO median 0, no signal -100; GFP signal change (wild-type ribosome), % (no concentration beside the values); 1.6% of 350,000 active; AID 720706, 2013;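 active means significant combined selectivity score with lowered wild-type GFP, culture density cut under 30%, mutant RFP and density less affected; inactive means any of these conditions unmet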; further: one replicate is shown; some compounds called inactive have numbers as strong as hits
# FGF22 binding – binders of human FGF22 protein, primary screen, FGF22 synaptogenesis inhibitor project, biophysical, thermal shift, single point; recombinant FGF22 thermal shift, SYPRO orange fluorescence; percent of sucrose octasulfate shift, DMSO zero; AID 651658, 2012; calls only at 9.99 µM; Fibroblast growth factor 22 (Homo sapiens), Q9HCT0; 1.5% of 340,000 active;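 active means melting point raised past a set limit in the mean and every replicate; inconclusive means no clear call; three in four hits are not shown here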
# Target sequence (Q9HCT0 whole entry, looked up): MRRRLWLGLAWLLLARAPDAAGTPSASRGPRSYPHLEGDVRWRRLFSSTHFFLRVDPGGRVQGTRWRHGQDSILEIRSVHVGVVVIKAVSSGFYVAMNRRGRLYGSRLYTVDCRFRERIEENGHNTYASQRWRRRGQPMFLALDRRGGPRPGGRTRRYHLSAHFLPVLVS
# Ecoli rRNA inh OD600 – also measured in Ecoli rRNA inh; calls as there; OD600 change, %; measured here: OD600 growth;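 optical density of the mix in the first replicate; 0 = DMSO median and -100 = no signal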
# Ecoli rRNA inh RFP – also measured in Ecoli rRNA inh; calls as there; RFP signal change, %; measured here: RFP humanized mutant strains;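 first replicate; 0 = DMSO median and -100 = no signal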
# An asterisk follows results filed as active; i = inactive; ? = inconclusive; · = not tested or not shown.
# Each structure is followed by: AF4-AF9 inh	A1 inh	Ecoli growth	Beta cell apopt	UCH37 inh	T cruzi inh	Ecoli rRNA inh	Ecoli rRNA inh OD600	Ecoli rRNA inh RFP	FGF22 binding
O=C(CCN1CCOCC1)NNC(=O)/C(=C/c1ccccc1)NC(=O)c1ccccc1
→ -1.0	-0.1	0.67	-4	2.2	-6	20	15	1.0	i
COc1ccc(-c2c(NC(=O)c3ccco3)oc3ccccc3c2=O)cc1OC
→ -0.5	0.5	0.73	-7	8.6	-7	·	·	·	i
Cc1cc(-n2nc(C)cc2C)nc(NS(=O)(=O)c2ccccc2Cl)n1
→ ·	-0.9	0.71	-1	0.0	-18	·	·	·	·
O=C(CN1CCN(c2ncccn2)CC1)N(Cc1ccccc1)c1ccc(F)cc1
→ -9.5	0.3	0.6	-8	1.2	9	-35*	-26*	6.7*	i
O=C(CN1CCN(Cc2ccc(F)cc2)CC1)NCc1ccccc1
→ -3.5	0.0	0.64	-3	1.9	7	13	14	-0.6	i
N=C1C(c2ccccc2)=C(O)C2CCc3ccccc3N12 (stereo not given)
→ ·	0.0	0.7	·	0.2	5	·	·	·	·
CCN(CC)c1ccc(NC(=O)c2ccc(=O)[nH]c2)cc1S(=O)(=O)Nc1ccc(OC)cc1
→ 3.2	0.2	0.66	-5	5.8	-4	-5	-8	1.2	i
CCOc1cc(S(=O)(=O)Nc2ccc(Cl)cn2)ccc1Cl
→ ·	0.4	0.76	-1	-1.9	16	·	·	·	·
CCOc1ccc(-n2c(=S)sc3c(=O)[nH]c(SCC(=O)N4CCC(C)CC4)nc32)cc1
→ ·	-0.4	0.65	·	11	14	-25*	-12*	4.6*	·
Cc1cc(NC(=O)COC(=O)C2CC(=O)N(c3cccc(Cl)c3)C2)no1 (stereo not given)
→ -4.5	1.3	0.7	-2	-0.1	4	3	4	-2.2	i
Nc1c(C(=O)Nc2ccc3c(c2)OCCO3)nnn1Cc1cccc(Br)c1
→ 3.7	-2.4	0.68	2	1.7	-8	-26	-32	1.2	i
Cc1ccc(C(=O)NCC(=O)OCC(=O)Nc2cc(S(=O)(=O)N3CCOCC3)ccc2Cl)s1
→ 2.8	-0.5	0.7	-5	1.3	·	·	·	·	i
Nn1c(-c2ccc(F)cc2)nc2ccccc2c1=O
→ 0.0	2.1	0.67	0	-0.5	-10	12	7	5.0	i
N#Cc1c(-c2ccccc2)ccnc1Oc1ccccc1
→ ·	0.8	0.81	-6	-2.3	3	·	·	·	·
CCOc1cc(C(=O)Nc2ccc3c(c2)OCO3)ccc1OC(F)F
→ -23	-0.8	0.66	1	0.7	-13	-5	-7	-3.3	i
CCOC(=O)C1C(=O)NC(N2CCN(CC)CC2)=NC1c1ccccc1 (stereo not given)
→ ·	0.5	0.72	-2	1.1	9	·	·	·	·
O=C(CCCC(=O)OCC(=O)c1ccc(Cl)cc1Cl)Nc1cc(C(F)(F)F)ccc1Cl
→ ·	1.0	0.7	-1	3.1	-22	·	·	·	·
Cc1ccc(-c2cc(C(F)F)nc(S(C)(=O)=O)n2)cc1
→ ?	-0.7	0.66	-15	3.0	-6	-3	-6	15	i
CCCNC(=O)COC(=O)C1CCN(S(=O)(=O)c2ccc3c(c2)OCCO3)CC1
→ -2.0	-0.3	0.67	3	0.3	-15	0	5	-1.2	i
Cc1ccc(NC(=O)CN2C(=O)NC3(CCCc4ccccc43)C2=O)c(C)c1 (stereo not given)
→ 0.9	·	0.69	·	3.4	·	-8	-3	-0.1	i
C=C(c1cn(C(C)=O)c2ccccc12)c1cn(C(C)=O)c2ccccc12
→ 0.1	·	0.71	·	3.1	·	-11	-19	6.1	i
O=C(COC(=O)C(O)c1ccccc1)c1ccc2c(c1)OCCO2 (stereo not given)
→ ·	0.4	0.75	8	-3.6	-9	·	·	·	·
OC(COC(c1ccc(F)cc1)c1ccc(F)cc1)CN1CCc2ccccc2C1 (stereo not given)
→ -21	1.1	0.63	102*	6.3	16	-41	-50	-3.0	i
COc1ccc(C(C)(C)C)cc1NC(=O)c1cc(S(=O)(=O)N(C)C)ccc1N1CCCC1
→ 11	0.4	0.72	1	1.7	25	-1	0	-11	i
COc1cccc(C(=O)N2CCCc3ccccc32)c1
→ ·	0.7	0.67	-8	0.8	-15	·	·	·	·
CCN(CC)S(=O)(=O)c1cccc(NC(=O)CN(C)C2CCCCC2)c1
→ 3.6	1.1	0.67	-3	3.4	3	8	-7	0.6	i
COc1ccc(CN2CCNC(=O)C2CC(=O)NCc2csc(C)n2)c(F)c1 (stereo not given)
→ 0.5	-0.7	0.72	-1	-1.0	-15	17	16	-0.2	i
Cc1ccc(NC(=O)C(C)N2C(=O)c3ccccc3C2=O)c(C)c1 (stereo not given)
→ -0.6	0.0	0.66	-3	1.2	-5	5	11	-1.4	i
C/C(=C/C(=O)N1CCN(C)CC1)C(=O)O
→ 0.9	0.7	0.7	-3	5.6	-13	22	14	5.0	i
C#CC(C)OC(=O)Nc1cnccc1C(F)(F)F (stereo not given)
→ -3.0	0.2	0.66	-14	-0.4	-24	4	-9	-1.5	i
Cc1ccc2oc(C(=O)NCc3ncc(C)[nH]3)c(C)c2c1
→ 2.7	1.8	0.66	6	-1.8	25	-22	-20	-2.6	i
Cc1ccsc1/C=N/NC(=O)c1cccc(S(=O)(=O)Nc2ccccc2Cl)c1
→ 4.3	-1.3	·	0	·	-8	·	·	·	i
Cc1ccc(-c2csc(NC(=O)CSc3nc(C)cc(=O)[nH]3)n2)cc1
→ ·	0.2	0.63	-4	3.4	45	·	·	·	·
CCCCn1nnnc1SCC(=O)Nc1cccc(C)c1
→ -2.7	1.2	0.7	-3	3.8	4	0	-6	-0.6	i
CC(C)CCn1cnc2c(cnn2-c2ccc(Cl)cc2)c1=O
→ ·	-0.4	0.7	-15	-0.9	13	·	·	·	·
O=C(CN1CCN(c2ccc(O)cc2)CC1)Nc1cc(S(=O)(=O)N2CCCC2)ccc1Cl
→ 7.9	-0.7	0.64	6	3.5	7	-21*	-11*	2.6*	i
O=C(NCc1cccnc1)c1ccc(-c2ccc(Cl)cc2)o1
→ -1.8	-0.9	0.64	-5	-12	11	-2	-4	5.3	i
COc1ccc(C2C(=O)N(C3CCCCC3)CC(=O)N2Cc2ccc3c(c2)OCO3)cc1 (stereo not given)
→ 9.0	·	0.63	·	-0.5	18	-37	-45	-5.2	i
CCOC(=O)c1c(NC(=O)C(F)(OC)C(F)(F)F)sc(C(=O)N2CCCCC2)c1C (stereo not given)
→ ·	1.1	0.68	7	0.3	21	·	·	·	·
Cc1ccc(S(=O)(=O)NCC(=O)N(CC(=O)NCc2ccco2)Cc2ccc3c(c2)OCO3)cc1
→ ·	0.5	0.78	·	0.5	-7	·	·	·	·
O=C1NC(=O)/C(=C\c2ccccc2OCc2ccc([N+](=O)[O-])cc2)N1
→ -0.4	-0.1	0.73	6	2.7	-13	0	-1	3.6	i
O=C(NCC(c1ccco1)N1CCCC1)c1cn(Cc2ccccc2)nc1-c1ccccc1 (stereo not given)
→ -2.6	-0.2	0.69	-4	0.9	·	·	·	·	i
C=C(C)CN(CC)C(=O)CSc1ccc(S(=O)(=O)N2CCN(C)CC2)cn1
→ 8.8	·	0.68	·	0.6	·	8	11	1.1	i
COc1ccc(C(=O)N/N=C/c2ccc(OC)c(COc3ccccc3)c2)cc1
→ -1.3	0.0	·	0	·	-9	10	15	5.3	i
Cc1ccc(OCC(=O)Nc2ccc3c(c2)C(=O)NC3=O)c(C)c1
→ -1.3	0.3	0.69	3	-22	-15	12	3	1.0	i
Cc1ccc(S(=O)(=O)N2CCOCC2)cc1C(=O)Nc1cccc(C(=O)NC2CC2)c1
→ 0.8	0.3	0.66	1	4.3	·	-1	9	-0.8	i
CS(=O)(=O)c1ccc(S(=O)CC(=O)OCc2ccccc2)c([N+](=O)[O-])c1 (stereo not given)
→ -11	·	·	·	44*	56*	-7	0	3.9	i
Cn1c(=N)n(CC(=O)c2ccc(Br)cc2)c2ccccc21
→ ·	-2.2	0.68	-12	7.6	0	-37	-36	-8.0	i
COc1cccc(/C=N/NC(=O)C(C)Cn2cnc3ccccc32)c1 (stereo not given)
→ 1.1	0.2	·	-5	·	-4	-4	-5	-1.4	i
O=C(N=C1SC2CS(=O)(=O)CC2N1CCc1ccc(F)cc1)C1CCCCC1 (stereo not given)
→ 0.4	0.2	0.73	-1	3.0	10	6	17	4.1	i
CN1CCCC(CC2Oc3ccccc3Sc3ccccc32)C1 (stereo not given)
→ 16	0.5	0.6	6	3.9	49	-45	-74	-5.8	i
Cn1c(CCNC(=O)c2ccc(Cl)cc2)n[nH]c1=S
→ ·	1.6	0.72	-2	1.0	-8	·	·	·	·
COc1ccc(-n2c(N)c(Br)c(=O)[nH]c2=O)cc1
→ -2.9	0.7	0.66	-5	2.8	3	2	6	3.4	i
COC(=O)c1ccc(S(=O)(=O)c2ccccc2)c(N)c1
→ ·	1.0	0.72	-11	i	4	·	·	·	·
COc1ccc(OC)c(S(=O)(=O)N2CCC(C(=O)N3CCN(Cc4ccccc4)CC3)CC2)c1
→ ·	-0.6	0.73	1	-4.9	4	·	·	·	·
COc1ccc(S(=O)(=O)CCC(=O)N2c3ccccc3CC2C)cc1 (stereo not given)
→ ·	0.1	0.75	1	4.7	-10	·	·	·	·
O=C(CN1C(=O)NC2(CCCC2)C1=O)Nc1nc2ccccc2s1
→ -0.8	1.1	0.7	-4	3.5	20	5	5	1.4	i
Cc1[nH]n(-c2cccc([N+](=O)[O-])c2)c(=O)c1-c1ccccc1
→ 8.6	0.7	0.69	1	0.9	-16	-1	-8	-3.2	·
CN(CC(=O)N1CCN(Cc2ccccc2)CC1)S(=O)(=O)c1ccc(F)cc1
→ -12	0.7	0.66	0	-1.5	13	1	-1	5.6	i
Cc1onc(-c2ccccc2Cl)c1C(=O)Nc1ccc(Cl)cn1
→ -2.1	-2.6	0.63	-3	-0.1	4	-22*	-14*	-3.9*	i

# 3 compounds out of the list above, ordered by their value in UCH37 inh, highest first:
mol | AF4-AF9 inh | A1 inh | UCH37 inh | Ecoli rRNA inh | Ecoli rRNA inh OD600 | Ecoli rRNA inh RFP
O=C(CN1CCN(c2ccc(O)cc2)CC1)Nc1cc(S(=O)(=O)N2CCCC2)ccc1Cl | 7.9 | -0.7 | 3.5 | -21* | -11* | 2.6*
Cc1[nH]n(-c2cccc([N+](=O)[O-])c2)c(=O)c1-c1ccccc1 | 8.6 | 0.7 | 0.9 | -1 | -8 | -3.2
COc1ccc(C2C(=O)N(C3CCCCC3)CC(=O)N2Cc2ccc3c(c2)OCO3)cc1 (stereo not given) | 9.0 | · | -0.5 | -37 | -45 | -5.2

# Only part of the results is shown; rates above refer to the full screens.
